HNF4A DNA FP: change in binding of human HNF4 alpha to DNA; 0.3% of 360,000 active; HNF4a-FITC DNA binding, fluorescence polarization, 1 h; AID 1224865; P41235; activity change, % at 10 µM; in the data active = activity change above about 30%, passing the limit was not always enough;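 note: controls were the assay level and a saturating level of protein; the project sought stronger binding though the title names inhibitors; some compounds called inactive have numbers as strong as hits; positive values seem to mean higher polarization but the record does not say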
Ecoli growth: E. coli growth inhibition; Escherichia coli growth, OD600, 23 h; active compounds read low; 0.21% of 330,000 active; OD600 absorbance (concentration not given with the values);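 active = OD600 absorbance below the run mean of sample wells minus 3.6 SD, in any replicate, cut at about 0.56 in these data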;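 note: stock transfer was 300 nL into about 60 µL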
UCH37 inh: human UCH37 deubiquitinating enzyme inhibition; purified proteasome/UCH37, Ub-AMC cleavage fluorescence; inhibition, % (concentration not given with the values); Q9Y5K5; 0.33% of 330,000 active; AID 588478;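 active = mean of two replicates above 20%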;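 note: 0% = compound-free wells with enzyme and 100% = wells lacking proteasome; stock transfer was 100 nL into about 20 µL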
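system = Proteasome-associated human UCH37 deubiquitinase | amount = 0.15 nM proteasome as dispensed | medium = pH 7.4 Tris-HCl (50 mM) with ovalbumin, ATP-MgCl2, DTT | incubation = 30 min preincubation with enzyme, 25 min cleavage at room temperature | detection = AMC fluorescence 355/460 nm | read-out basis = percent inhibition | controls = no-proteasome and no-compound wells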
Vif TR-FRET: inhibitors of Vif binding to APOBEC3G peptide, primary screen, biochemical, TR-FRET, GST-Vif 1-94, biotin-A3G peptide, dose response retest (AID 1117319); 0.57% of 260,000 active; inhibition, %, or IC50 in µM where a hit was titrated; TR-FRET GST-Vif / biotin-A3G peptide binding; higher % means a stronger effect; test concentration not given here; strong numbers were not always called active;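 active = above the screen mean plus three standard deviations and confirmed in dose response; inconclusive = results disagree or hit not tested in dose response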;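 note: Vif residues 1-94 fused to GST binding biotinylated APOBEC3G peptide 110-148; 0% = full assay without inhibitor and 100% = GST in place of GST-Vif; retest series ran down from 100 µM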
LANA-H2B inh: blocks KSHV LANA binding to histone H2A/H2B; Q9QR71; cell-free LANA-H2A/H2B peptide, fluorescence polarization; inhibition, % (no concentration beside the values); 0.6% of 320,000 active; AID 2629; in the data active = inhibition mostly above about 10%, no sharp cut-off; inactive = mostly below about 6.7%;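 note: stock transfer was 7.5 nL into about 10 µL; 0% = median of vehicle wells and 100% = median of positive control wells; one replicate is shown; the record names a cut of 25% in any replicate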
Target sequence (Q9QR71 whole entry, looked up): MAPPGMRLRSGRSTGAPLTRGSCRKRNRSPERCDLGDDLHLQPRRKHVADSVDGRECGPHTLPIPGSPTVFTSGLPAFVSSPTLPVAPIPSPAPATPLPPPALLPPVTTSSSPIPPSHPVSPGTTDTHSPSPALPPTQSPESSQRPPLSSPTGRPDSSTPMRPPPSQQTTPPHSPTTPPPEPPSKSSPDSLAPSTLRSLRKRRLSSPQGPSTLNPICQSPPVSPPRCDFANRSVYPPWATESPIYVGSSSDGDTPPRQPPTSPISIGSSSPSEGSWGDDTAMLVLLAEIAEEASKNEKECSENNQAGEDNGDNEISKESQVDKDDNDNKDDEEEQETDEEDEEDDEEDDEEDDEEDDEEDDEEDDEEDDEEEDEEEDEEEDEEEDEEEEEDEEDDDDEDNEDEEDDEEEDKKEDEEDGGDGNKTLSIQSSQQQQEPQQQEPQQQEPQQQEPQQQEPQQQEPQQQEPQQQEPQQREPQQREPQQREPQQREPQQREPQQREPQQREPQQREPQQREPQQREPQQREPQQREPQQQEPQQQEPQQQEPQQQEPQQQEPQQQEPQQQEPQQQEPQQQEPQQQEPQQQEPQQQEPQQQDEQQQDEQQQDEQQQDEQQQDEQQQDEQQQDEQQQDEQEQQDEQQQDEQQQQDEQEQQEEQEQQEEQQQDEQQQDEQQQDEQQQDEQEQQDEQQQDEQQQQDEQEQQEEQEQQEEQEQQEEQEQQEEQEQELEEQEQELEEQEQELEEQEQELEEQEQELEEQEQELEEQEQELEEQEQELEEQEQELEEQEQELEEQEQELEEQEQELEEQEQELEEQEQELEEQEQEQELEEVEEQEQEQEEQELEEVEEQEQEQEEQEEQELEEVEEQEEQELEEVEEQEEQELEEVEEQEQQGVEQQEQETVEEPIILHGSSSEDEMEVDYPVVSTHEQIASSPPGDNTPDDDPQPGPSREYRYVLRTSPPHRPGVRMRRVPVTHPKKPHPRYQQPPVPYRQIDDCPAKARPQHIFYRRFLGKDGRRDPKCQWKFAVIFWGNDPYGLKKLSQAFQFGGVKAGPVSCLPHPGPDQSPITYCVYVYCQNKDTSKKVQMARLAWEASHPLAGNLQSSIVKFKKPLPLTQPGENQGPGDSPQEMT
Bfl-1 A1 inh: inhibitors of the anti-apoptotic protein A1, read as caspase activation | MEF A1-2A-BIM cells, Caspase-Glo 3/7 luminescence, 3 h; percent of clofoctol response, vehicle zero | caspase activation, % (concentration not given with the values) | 0.066% of 330,000 active | AID 2462;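 active = over half of replicate activation scores above 10%, or exactly half above 10 with the replicate mean above 10; inconclusive = replicate mean below 10 yet half the replicates above 10; inactive = over half of replicates below 10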;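 note: wells of about 30 µL received 50 nL stock; many hits fall short of the cut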
B2AR ag: agonists of human beta-2 adrenergic receptor inducing internalization. response, % (test concentration not listed). P07550. 0.43% of 340,000 active. Am2.2-beta2AR cells, FAP receptor internalization, flow cytometry; reference of the scale not given here;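 active = response above a set limit, near 3 SD of response in nonfluorescent compounds, cut at about 42% in these data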;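 note: stock transfer was 100 nL into about 11 µL; a reference agonist was the positive control; negative values mostly stem from fluorescent compounds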
Active calls of the source: *; i = inactive; ? = inconclusive; . = no result given. Rows were taken by chance; about 2.1% have a hit in one of these screens.

SMILES	HNF4A DNA FP	Ecoli growth	UCH37 inh	Vif TR-FRET	LANA-H2B inh	Bfl-1 A1 inh	B2AR ag
CC(C)[C@@H](CSc1ccccc1)N1CCN(Cc2ccccc2)CCC1=O	2.3	.	3.5	.	0.9	0.2	2
CO/N=C(/CNC(=O)c1ccc(F)cc1)c1ccc(Cl)cc1	-6.9	.	.	22%	3.5	-1.1	0
CC(Oc1cc2oc(=O)c3c(c2cc1Cl)CCC3)C(=O)NCC1CCC(C(=O)O)CC1 (stereo unspecified)	-1.7	0.7	-2.4	.	5.1	-0.2	1
Cc1cc(NS(=O)(=O)c2ccc(NC(=S)NC(=O)c3cccnc3)cc2)no1	-0.9	0.56	3.1	7%	2.1	-0.6	5
CC(=O)N1CCN(S(=O)(=O)c2cccc(C(=O)NCc3ccc(F)cc3)c2)CC1	-2.5	0.67	0.1	-6%	1.1	-2.0	0
Nn1c(SCc2ccccc2)nnc1C1CCCCC1	3.1	0.68	1.0	-3%	-7.4	0.6	-6
CC1(C)Cc2c(cnn2-c2ccc(F)cc2)C(NC(=O)c2ccc(=O)oc2)C1 (stereo unspecified)	1.7	0.69	2.0	.	-5.8	2.3	-8
O=C(NC1CC1)C1CCN(C2CCN(C(=O)c3c(F)cccc3Cl)CC2)CC1	2.4	0.68	-4.0	-4%	-8.3	-0.3	-1
COc1ccc(Nc2nc(N)nc(CSc3nnc(C)s3)n2)cc1	-1.5	0.68	1.2	.	-1.0	0.7	-4
CC1=C(C(=O)OCc2ccccc2)C(c2ccccc2)NC(=O)N1CCCC(=O)O (stereo unspecified)	0.5	0.71	2.3	.	0.4	0.2	-9
O=C(NCCCn1ccnc1)c1cc([N+](=O)[O-])cc([N+](=O)[O-])c1	-0.4	0.69	0.5	-2%	-0.8	0.7	-7
COc1ccc(C(=O)c2c3ccccc3[n+]([O-])n2Cc2ccc(C(N)=O)cc2)cc1	-1.6	0.66	1.1	.	-0.2	-0.5	-6

Part of the list above in order of SMILES length, falling:
SMILES	HNF4A DNA FP	Ecoli growth	UCH37 inh	Vif TR-FRET	LANA-H2B inh	Bfl-1 A1 inh	B2AR ag
CC(=O)N1CCN(S(=O)(=O)c2cccc(C(=O)NCc3ccc(F)cc3)c2)CC1	-2.5	0.67	0.1	-6%	1.1	-2.0	0
CO/N=C(/CNC(=O)c1ccc(F)cc1)c1ccc(Cl)cc1	-6.9	.	.	22%	3.5	-1.1	0
COc1ccc(Nc2nc(N)nc(CSc3nnc(C)s3)n2)cc1	-1.5	0.68	1.2	.	-1.0	0.7	-4

Remaining list, next part
SMILES	HNF4A DNA FP	Ecoli growth	UCH37 inh	Vif TR-FRET	LANA-H2B inh	Bfl-1 A1 inh	B2AR ag
Cc1cc(C(=O)Oc2ccccc2C(=O)O)c(C)o1	-3.2	0.69	3.4	16%	-1.3	0.2	17
CCOc1ccccc1NC(=O)c1nnn(CC(=O)Nc2cc(C)cc(C)c2)c1N	0.6	0.67	-4.0	1%	1.2	0.3	1
COC(=O)c1ccc(N(CC(=O)NC2CCCC2)C(=O)c2ccc(C)s2)cc1	-1.8	0.71	5.8	2%	14	0.1	0
CCn1cc(C(=O)NCC(C)C)c(=O)c2cc(F)c(N3CCN(C)CC3)cc21	-0.3	0.075*	-55	-7%	-3.6	0.8	-9
CCOc1ccc(-c2nnc(NC3=NCCCCC3)o2)cc1	0.0	0.7	-2.3	-2%	-2.5	-1.8	0
CC(=O)NCc1ccc(C(=O)COC(=O)COc2ccc(Cl)c(C)c2)s1	4.3	0.65	1.4	.	-2.5	0.1	-1
CCOc1nc(SC(C(C)=O)C(=O)Nc2ccccc2)nc(N(C)C)n1 (stereo unspecified)	0.6	0.74	-2.3	6%	-5.7	0.0	-9
CC(=O)Nc1ccc(S(=O)(=O)N2CC(=O)NC(=O)C2)cc1	0.4	0.7	2.3	0%	-1.2	1.0	3
CCCCN(CC)S(=O)(=O)c1ccc(C(=O)Nc2nnc(CSC)o2)cc1	2.0	0.72	-0.4	-3%	1.6	0.0	-22
CC(NC(=O)Cc1ccccc1)c1cc2c(cc1Br)OCCCO2 (stereo unspecified)	4.3	0.69	-0.1	?	-1.6	0.1	-1
CC(C(=O)NCc1ccccc1)N1C(=O)C2CC=C(Cl)CC2C1=O (stereo unspecified)	-9.1	0.7	-0.5	11%	1.3	-0.2	-5
COc1ccccc1CN(C(=O)CNC(=O)c1ccco1)C(C(=O)NCC1CCCO1)c1ccccc1 (stereo unspecified)	1.0	0.71	-1.0	.	-4.6	-0.1	9
Cc1c(C(c2ccccc2Br)c2c(C)n(C)n(-c3ccccc3)c2=O)c(=O)n(-c2ccccc2)n1C	1.8	0.65	-0.5	5%	-1.5	0.6	5
COc1cc(Br)cc2cc(C(=O)N3CCOCC3)c(=O)oc12	2.5	.	.	-2%	1.8	0.4	5
Cc1ccc(OCC(=O)Nc2ccc(S(=O)(=O)Nc3cc(C)nc(C)n3)cc2)cc1	3.7	0.69	1.7	12%	0.0	0.6	3
CCN(CC)c1ccc(/C=N/NS(=O)(=O)c2ccc(CNC(C)=O)cc2)cc1	0.8	.	.	-4%	1.5	0.9	-4
c1csc(-c2nc(N3CCOCC3)c3ccccc3n2)c1	2.7	0.69	4.2	.	-2.5	0.7	-10
Cc1ccc(Nc2nc(C(=O)NCC3CCCO3)cs2)cc1 (stereo unspecified)	1.3	0.7	2.2	?	1.4	0.1	5
CCN(CC)CCNC(=O)c1ccc(NC(=O)c2cccc(S(=O)(=O)N(C)C3CCCCC3)c2)cc1	2.5	0.65	5.6	.	.	.	15
CCn1c(-c2ccccc2Cl)nn(CC(=O)Nc2ccccc2C)c1=S	-0.1	0.69	1.0	3%	0.1	0.4	0
COc1ccc(N(CC(=O)NCCc2ccc(S(N)(=O)=O)cc2)S(=O)(=O)c2c(C)noc2C)cc1	1.3	0.67	4.9	9%	4.3	-0.5	4
COc1ccc(C2(C(=O)Nc3nncs3)CCCC2)cc1	1.7	0.74	5.6	5%	0.7	0.1	-5
Cc1cc(NC(=O)CSc2ccnc(=O)[nH]2)no1	2.2	0.68	1.4	4%	-2.2	0.1	-3
CC1CCCCC1NC(=O)CSc1nnc(-c2ccco2)n1C (stereo unspecified)	1.4	0.72	2.1	-12%	.	.	-7

3 entries already listed, sorted by the number in LANA-H2B inh, smallest number first:
SMILES | LANA-H2B inh
Cc1cc(NC(=O)CSc2ccnc(=O)[nH]2)no1 | -2.2
Cc1ccc(Nc2nc(C(=O)NCC3CCCO3)cs2)cc1 (stereo unspecified) | 1.4
CCN(CC)c1ccc(/C=N/NS(=O)(=O)c2ccc(CNC(C)=O)cc2)cc1 | 1.5

The list continues:
SMILES	HNF4A DNA FP	Ecoli growth	UCH37 inh	Vif TR-FRET	LANA-H2B inh	Bfl-1 A1 inh	B2AR ag
C=CCn1c(COc2ccccc2)nnc1SCC(=O)C(C)(C)C	-2.0	0.77	4.2	?	-2.0	0.3	2
CCC(C)C(NC(N)=O)C(=O)NC1CCC(C)CC1 (stereo unspecified)	.	0.71	0.6	?	-1.7	1.1	.
Cn1ccnc1C(O)c1cccc(OCc2ccccc2)c1 (stereo unspecified)	2.1	0.66	0.4	2%	2.0	0.3	-1
O=C(O)c1ccc(Cl)c(NCc2ccncc2)c1	-0.8	0.65	7.0	.	.	.	-3
O=C(COC(=O)CSc1ccc(F)cc1)NCCCc1ccccc1	-0.9	0.61	-2.1	8%	-2.6	0.5	-1
CCCCNC(=NCc1cccc(C(F)(F)F)c1)Nc1ccccc1	3.2	0.66	4.8	4%	1.5	-0.9	8
Oc1ccc(CNC2CCCCC2)cc1	-2.9	0.7	-0.3	7%	-11	0.7	5
CCOc1cccc(CN(C)CC2CCCN(CCc3ccc(Cl)cc3)C2)c1O (stereo unspecified)	-1.1	0.63	1.9	4%	3.9	0.0	8
COc1ccc(-c2nc3ccccc3c(=O)n2CCCn2ccnc2)cc1	1.3	0.68	0.4	5%	-0.6	0.8	-18
CCOc1cc(N2CCOCC2)c(OCC)cc1NC(=O)c1cc(S(=O)(=O)N2CCOCC2)ccc1F	-0.9	0.7	4.1	.	-0.1	0.3	-1
O=[N+]([O-])/C=C/c1cn(Cc2ccc(F)cc2)c2ccccc12	3.4	0.66	3.2	9%	-0.9	0.5	41
CCC(C)[C@H](NC(=O)[C@@H]1Cc2ccccc2CN1)C(=O)NCc1ccc(OC)cc1 (stereo partly specified)	0.1	0.75	4.9	.	-2.4	0.4	4
COCc1cc([C@@H]2C[C@H]3CN(c4ccccc4)C(=O)[C@]34CCCN24)ccc1OC	5.5	0.69	0.6	1%	-3.1	-0.5	4
C=CCn1c(SCC(=O)N2CCCC2=O)nc2sc(CC)cc2c1=O	-2.9	.	.	-11%	.	-0.2	-15
CC(C)n1c(NCc2cc(Cl)ccc2O)nc2ccccc21	-4.8	0.78	2.8	1%	1.3	.	-6
Cn1c(/C=C/N2CCOCC2)c(C(=O)c2ccc(Br)cc2)c(=O)n(C)c1=O	-2.8	0.71	16	8%	1.7	0.1	-5
O=C1CSC(=S)N1/N=C/C=C/c1ccccc1	-1.7	.	.	.	-3.7	0.5	3
COCCn1c(SCC(=O)c2c(N)n(C3CC3)c(=O)[nH]c2=O)nnc1-c1cccc(C)c1	0.7	0.7	0.9	.	7.6	-0.7	-1
Cc1ccc(N2C(=O)CSC2c2cccnc2)cc1F (stereo unspecified)	-2.4	0.76	5.2	-4%	-1.5	?	-5
CCOc1ccc(Cl)cc1S(=O)(=O)n1nnc2ccccc21	0.4	0.68	5.5	18%	-6.0	0.5	-3
CC(C)(C)c1cc(C(F)(F)F)c(C#N)c(=O)[nH]1	-1.1	0.72	i	?	-1.4	0.0	2
Cc1ccccc1Nc1nnc(SCC(=O)NCC2CCCO2)s1 (stereo unspecified)	2.9	0.71	2.2	-5%	2.3	-0.6	0
COc1cc(CN2CCN(c3ccccc3F)CC2)cc(OC)c1O	-0.3	0.6	3.1	1%	-0.2	0.0	1
COc1ccc2c3n([n+]([O-])c2c1)CCN=C3c1cc(Cl)c(N)c(Cl)c1	7.8	0.64	-0.5	.	-3.4	0.1	-6
C=CCn1c(C(CCCC)CC(O)COCC(C)C)n[nH]c1=S (stereo unspecified)	-1.3	0.65	1.8	9%	1.8	0.6	3
O=S(=O)(CCc1ccccc1)CS(=O)(=O)CCc1ccccc1	-1.9	0.72	3.2	-1%	.	.	2
Cc1c2cnn(CC(=O)Nc3c(F)c(F)cc(F)c3F)c(=O)c2c(C)n1Cc1ccccc1F	-53	0.72	-1.7	-2%	1.3	0.2	5
CCc1cc(=O)oc2cc(OCC(=O)NCCN3CCOCC3)c(Cl)cc12	0.5	0.66	-16	.	1.6	0.7	2
CCOc1ccc(N(CC(=O)NCc2ccc3c(c2)OCO3)C(=O)c2csnn2)cc1	3.1	0.69	1.6	.	-8.4	-0.1	-8
CCn1cc(C(=O)NCC2CCCO2)c(=O)c2cc(S(=O)(=O)N3CCCCC3)ccc21 (stereo unspecified)	-1.4	0.65	5.8	0%	3.6	1.0	-1
C/C(=C\C(=O)OCC(=O)NCc1ccccc1)C(=O)OCC(=O)NCc1ccccc1	1.0	0.68	3.2	.	-7.1	0.1	-3
CCOc1ccccc1CN1CCN(C2CCSCC2)CC1CCO (stereo unspecified)	1.5	0.68	-2.0	-1%	4.0	1.8	1
Cc1ccc(OCCC(=O)OCC(=O)c2ccc3c(c2)NC(=O)CO3)cc1	-5.5	0.69	0.9	103%	-0.7	-0.6	12
CC(Sc1nnnn1C)C(=O)Nc1ccc(N2CCOCC2)cc1 (stereo unspecified)	-1.3	0.71	0.1	0%	1.0	-0.6	7
